Source: PubChem BioAssay (National Center for Advancing Translational Sciences (NCATS))
EPAC2 ant val: Validation qHTS for antagonist of cAMP-regulated guanine nucleotide exchange factor 4 (EPAC2). Rap guanine nucleotide exchange factor 4 (Homo sapiens), Q8WZA2. EPAC2 Rap1B BODIPY-GDP exchange, fluorescence. Potency, µM (top dose mostly 112 µM), without a hit: at the top dose activity, negative = inhibition, actives largely listed as inhibitors. actives 1.7% (n = 16,000). AID 1645886, 2021; active = well fitted inhibition curve with a large enough effect; inconclusive = small, poorly fitted or top-dose-only effect; inactive = no such curve, though single readings can be large or run the other way;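 also: 100% = activation by cAMP agonist control; nearly all actives have a fitted effect of over 40% in size; the record reuses the description of the EPAC1 agonist screen; inactives centre near -10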
Target sequence (Q8WZA2 whole entry, looked up): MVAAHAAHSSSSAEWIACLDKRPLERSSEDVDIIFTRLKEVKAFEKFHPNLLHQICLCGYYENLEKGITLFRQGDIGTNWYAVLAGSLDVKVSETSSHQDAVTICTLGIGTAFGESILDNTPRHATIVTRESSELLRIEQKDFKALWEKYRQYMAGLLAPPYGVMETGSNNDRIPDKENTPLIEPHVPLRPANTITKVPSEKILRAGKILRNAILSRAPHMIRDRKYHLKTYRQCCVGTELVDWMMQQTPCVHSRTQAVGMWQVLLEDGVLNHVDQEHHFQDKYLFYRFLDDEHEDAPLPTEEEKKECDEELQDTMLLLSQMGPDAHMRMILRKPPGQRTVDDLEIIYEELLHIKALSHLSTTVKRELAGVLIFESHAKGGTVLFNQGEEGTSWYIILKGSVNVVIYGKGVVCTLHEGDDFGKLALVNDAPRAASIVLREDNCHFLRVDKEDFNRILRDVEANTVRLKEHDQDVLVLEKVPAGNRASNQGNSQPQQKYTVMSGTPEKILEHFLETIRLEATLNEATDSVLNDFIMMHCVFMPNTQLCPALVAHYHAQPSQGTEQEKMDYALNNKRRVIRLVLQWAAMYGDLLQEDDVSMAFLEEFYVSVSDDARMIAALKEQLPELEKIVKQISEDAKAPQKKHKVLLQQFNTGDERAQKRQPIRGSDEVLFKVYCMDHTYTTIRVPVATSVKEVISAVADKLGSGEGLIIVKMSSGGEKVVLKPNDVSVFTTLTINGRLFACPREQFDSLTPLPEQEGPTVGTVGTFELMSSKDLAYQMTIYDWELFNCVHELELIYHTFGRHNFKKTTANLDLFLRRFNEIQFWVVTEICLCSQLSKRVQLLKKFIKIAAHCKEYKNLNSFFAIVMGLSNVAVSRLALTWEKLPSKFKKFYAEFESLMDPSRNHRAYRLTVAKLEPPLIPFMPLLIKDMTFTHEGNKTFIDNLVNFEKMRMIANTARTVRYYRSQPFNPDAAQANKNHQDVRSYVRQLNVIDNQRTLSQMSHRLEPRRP
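Normalized against a 6.5 mM cAMP agonist control, compounds were tested on 100 nM EPAC2 exchanging Rap1B-bound BODIPY-GDP (250 nM) for 50 uM GDP. Fluorescence drop (ex 480, em 540 nm) was tracked at room temperature over 30 min at 5-min intervals.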
Active calls of the source: *; ? = inconclusive; & = joins results of further samples; ! = a repeat was not active; [ ] = remark or other dose. Potency is read from the fitted curve at half-maximal effect. An excerpt. The share of hits here may be higher or lower than overall.

SMILES	EPAC2 ant val
CCCCCCCCCCCCCCC[C@@H](O)[C@@H](N)CO	1%[11.4 µM]
COc1cc(C2Oc3cc(C4Oc5cc(O)cc(O)c5C(=O)C4O)ccc3OC2CO)ccc1O (configuration not stated)	1%
CCn1cc(C(=O)O)c(=O)c2cc(F)c(N3CCNC(C)C3)c(F)c21 (configuration not stated)	0%&-13%&3%&17%
O=C1c2c(O)cccc2[C@@H]([C@@H]2O[C@H](CO)[C@@H](O)[C@H](O)[C@H]2O)c2cc(CO)cc(O)c21	-22%
COC(=O)C1=C(C)NC(C)=C(C(=O)OCCN2CCN(C(c3ccccc3)c3ccccc3)CC2)C1c1cccc([N+](=O)[O-])c1 (configuration not stated)	-21%
CC(C)(C)NCC(O)COc1cccc2c1C[C@H](O)[C@H](O)C2 (some centres not stated)	-7%[56.6 µM]
CCCCC(CC)COC(=O)c1ccccc1O (configuration not stated)	-1%
O=C1c2c(O)ccc(O)c2C(=O)c2c(NCCNCCO)ccc(NCCNCCO)c21	?
C=CCN1C[C@H](C(=O)N(CCCN(C)C)C(=O)NCC)C[C@@H]2c3cccc4[nH]cc(c34)C[C@H]21	2%
CC[C@H](C)[C@H](N)C(=O)O	22%
CCOC(=O)c1ccccc1O	2%&10%
CCCCN(CCCC)CCCOC(=O)c1ccc(N)cc1	-6%[56.6 µM]
CC(=O)Nc1ccc(OC(=O)c2ccccc2OC(C)=O)cc1	-12%
CN(C)C(=O)CNC(=O)Cc1ccccc1	0%
CN(C(=O)c1c(O)c2ccccc2n(C)c1=O)c1ccccc1	-7%
Cc1ccccc1N1CCN(CCc2nnc3n2CCCC3)CC1	31%[activator]
CCC1(O)CC2CN(CCc3c([nH]c4ccccc34)[C@@](C(=O)OC)(c3cc4c(cc3OC)N(C)C3[C@]45CCN4CC=C[C@@](CC)([C@@H](OC(C)=O)[C@]3(O)C(=O)OC)[C@H]45)C2)C1 (some centres not stated)	2%
CC(=O)OCC(=O)[C@@]1(O)CC[C@H]2[C@@H]3CCC4=CC(=O)C=C[C@]4(C)[C@@]3(F)[C@@H](O)C[C@@]21C	-11%[56.6 µM]
O=C(O)Cc1sc(-c2ccccc2)nc1-c1ccc(Cl)cc1	-7%&-17%&-17%
Cc1cc(CC(C)CC(C)(C)C)n(O)c(=O)c1 (configuration not stated) (tested in a mixture with another compound)	?
c1ccc(-n2cnnn2)cc1	29%
NCc1ccccc1Sc1ccccc1CO	-18%
CC[C@@]12CCCN3CCc4c(n(c5ccccc45)[C@](O)(C(=O)OC)C1)[C@H]32	-15%
CCOC(=O)[C@H](CCc1ccccc1)N[C@@H](C)C(=O)N1C(=O)N(C)C[C@H]1C(=O)O	0%
CC(C)(C)NCC(O)COc1cccc2c1CC(O)C(O)C2 (configuration not stated)	-2%
(further entries)
SMILES	EPAC2 ant val
CCc1ccccc1OC[C@@H](O)CN[C@H]1CCCc2ccccc21	?
CN(C)CCCSc1ccccc1NC(=O)/C=C/c1ccccc1	16%
CN(c1nccc(=O)[nH]1)C1CCN(c2nc3ccccc3n2Cc2ccc(F)cc2)CC1	3%
Cc1c(C)n(Cc2ccccc2)c2ccc(C(=O)OCCN(C)C)cc12	-12%
CCCC(=O)O[C@]1(C(=O)COC(C)=O)CC[C@H]2[C@@H]3C[C@H](F)C4=CC(=O)C=C[C@]4(C)[C@@]3(F)[C@@H](O)C[C@@]21C	-7%
CN(C)C/C=C(\c1ccc(Br)cc1)c1cccnc1	-25%
C[C@@H]1C[C@H]2[C@@H]3CCC4=CC(=O)C=C[C@]4(C)[C@@]3(Cl)[C@@H](O)C[C@]2(C)[C@@]1(OC(=O)c1ccco1)C(=O)CCl	9%[56.6 µM]
Nc1ncnc2c1c(-c1ccc(Oc3ccccc3)cc1)cn2C1CCCC1	-24%
Cc1cc(=O)oc2cc(O)ccc12	-6%[56.6 µM]
C=Cc1ccccc1	-22%
CCCCOc1cc(C(=O)OCCN(CC)CC)ccc1N	3%[56.6 µM]
COC(=O)N/N=C/c1c[n+]([O-])c2ccccc2[n+]1[O-]	-23%
O=C(O)c1ccc(-n2nc(-c3ccccc3O)nc2-c2ccccc2O)cc1	43%[activator]
Cn1ccc2cc3c(cc21)CCN3C(=O)Nc1cccnc1	-26%&-24%&-32%
NC(=O)C[C@@H](N)C(=O)O	36%[activator]
C=CCCCCCCCCC(=O)OC	5%
CNS(=O)(=O)CCc1ccc2[nH]cc(C3CCN(C)CC3)c2c1	4%
CCN(CCCCOC(=O)c1ccc(OC)c(OC)c1)C(C)Cc1ccc(OC)cc1 (configuration not stated)	-7%
O=C(O)c1cc(=O)c2ccccc2o1	-9%
COc1ccc(-c2cc(C(F)F)nn2-c2ccc(S(N)(=O)=O)cc2)cc1F	-26%
CN(C)c1ccc2nc3ccc(=[N+](C)C)cc-3sc2c1	-28%
CC(C)NNC(=O)c1ccncc1	-16%&-10%
O=C(NCCCN1CCOCC1)c1ccc(Cl)cc1	-3%
CCCCCCCCCCCC[N+](C)(C)Cc1ccccc1	-15%
CC1(C)[C@@H](O[C@H]2O[C@H](C(=O)O)[C@@H](O)[C@H](O)[C@H]2O[C@@H]2O[C@H](C(=O)O)[C@@H](O)[C@H](O)[C@H]2O)CC[C@]2(C)[C@H]3C(=O)C=C4[C@@H]5C[C@@](C)(C(=O)O)CC[C@]5(C)CC[C@@]4(C)[C@]3(C)CC[C@@H]12	?

Copied from the entries so far for reference:
SMILES	EPAC2 ant val
CN(C)c1ccc2nc3ccc(=[N+](C)C)cc-3sc2c1	-28%
CC(C)NNC(=O)c1ccncc1	-16%&-10%
O=C(NCCCN1CCOCC1)c1ccc(Cl)cc1	-3%
CCCCCCCCCCCC[N+](C)(C)Cc1ccccc1	-15%
CC1(C)[C@@H](O[C@H]2O[C@H](C(=O)O)[C@@H](O)[C@H](O)[C@H]2O[C@@H]2O[C@H](C(=O)O)[C@@H](O)[C@H](O)[C@H]2O)CC[C@]2(C)[C@H]3C(=O)C=C4[C@@H]5C[C@@](C)(C(=O)O)CC[C@]5(C)CC[C@@]4(C)[C@]3(C)CC[C@@H]12	?

Remaining list, next part
SMILES	EPAC2 ant val
COc1cc(C=O)ccc1O	-10%&10%
Cc1cccc(N(C)C(=S)Oc2ccc3c(c2)CCC3)c1	-12%
CCc1cccc(CC)c1NC(=O)CN(CC(=O)O)CC(=O)O	17%[56.6 µM]
O=C(CCN1CCN(CCO)CC1)N1c2ccccc2Sc2ccc(C(F)(F)F)cc21	7%
Nc1c2ccccc2nc2ccccc12	-11%&-42%
CCCCCCCCCCCCCCCC[N+](C)(C)Cc1ccccc1	79µM*
COc1ccc(C(=O)c2ccccc2)c(O)c1	40µM*!
Cc1ccccc1OCC(O)CO (configuration not stated)	17%
CN(C)CC/C=C1/c2ccccc2COc2ccc(CC(=O)O)cc21	?
Cc1cc(Cn2cnc3c2C[C@@H](C(=O)O)N(C(=O)C(c2ccccc2)c2ccccc2)C3)ccc1N(C)C	-33%
CC1CCC2(C(=O)O)CCC3(C)C(=CCC4C3(C)CCC3[C@@]4(C)CC(O)C(O)[C@@]3(C)CO)C2C1C (some centres not stated)	-21%
CCCOc1ccc2nc(NC(=O)OC)[nH]c2c1	-9%
Cc1scc2c1N(C(=O)CN1CCN(C)CC1)c1ccccc1NC2=O	4%&6%&47%&-23%
O=C(NC1CCN(CCc2c[nH]c3ccccc23)CC1)c1ccccc1	-6%
N=c1nc(N2CCCCC2)cc(N)n1O	-12%
CCN(CC)CC1CCCCN1CC(=O)N1c2ccccc2C(=O)Nc2cccnc21 (configuration not stated)	21%
CN[C@@H]1[C@H](O)[C@H](NC)[C@H]2O[C@@]3(O)C(=O)C[C@@H](C)O[C@H]3O[C@@H]2[C@H]1O	4%[56.6 µM]
CN1[C@@H]2CC[C@H]1CC(NC(=O)n1c(=O)[nH]c3ccccc31)C2 (some centres not stated)	22%
CCCOc1ccc(C(=O)OCCN(CC)CC)cc1N	22%
CCCCCCCCCCCCOCCOCCOCCOCCOCCOCCOCCOCCOCCO	?
O=C(O)Cc1cn(-c2ccccc2)nc1-c1ccc(Cl)cc1	9%
CC(Cc1cccc(C(F)(F)F)c1)NCCOC(=O)c1ccccc1 (configuration not stated)	?
COC(=O)c1ccccc1O	1%
CCN(CC)CCOc1ccc(Cc2ccccc2)cc1	7%&-23%

Sorted by molecular weight (descending): 22 of the compounds above
SMILES	EPAC2 ant val
CCC1(O)CC2CN(CCc3c([nH]c4ccccc34)[C@@](C(=O)OC)(c3cc4c(cc3OC)N(C)C3[C@]45CCN4CC=C[C@@](CC)([C@@H](OC(C)=O)[C@]3(O)C(=O)OC)[C@H]45)C2)C1 (some centres not stated)	2%
C[C@@H]1C[C@H]2[C@@H]3CCC4=CC(=O)C=C[C@]4(C)[C@@]3(Cl)[C@@H](O)C[C@]2(C)[C@@]1(OC(=O)c1ccco1)C(=O)CCl	9%[56.6 µM]
Cc1cc(Cn2cnc3c2C[C@@H](C(=O)O)N(C(=O)C(c2ccccc2)c2ccccc2)C3)ccc1N(C)C	-33%
COc1cc(C2Oc3cc(C4Oc5cc(O)cc(O)c5C(=O)C4O)ccc3OC2CO)ccc1O (configuration not stated)	1%
C=CCN1C[C@H](C(=O)N(CCCN(C)C)C(=O)NCC)C[C@@H]2c3cccc4[nH]cc(c34)C[C@H]21	2%
CCN(CCCCOC(=O)c1ccc(OC)c(OC)c1)C(C)Cc1ccc(OC)cc1 (configuration not stated)	-7%
COc1ccc(-c2cc(C(F)F)nn2-c2ccc(S(N)(=O)=O)cc2)cc1F	-26%
O=C(O)c1ccc(-n2nc(-c3ccccc3O)nc2-c2ccccc2O)cc1	43%[activator]
CC(Cc1cccc(C(F)(F)F)c1)NCCOC(=O)c1ccccc1 (configuration not stated)	?
CN(C)C/C=C(\c1ccc(Br)cc1)c1cccnc1	-25%
CN(C(=O)c1c(O)c2ccccc2n(C)c1=O)c1ccccc1	-7%
CCCCCCCCCCCCCCC[C@@H](O)[C@@H](N)CO	1%[11.4 µM]
CN1[C@@H]2CC[C@H]1CC(NC(=O)n1c(=O)[nH]c3ccccc31)C2 (some centres not stated)	22%
Cn1ccc2cc3c(cc21)CCN3C(=O)Nc1cccnc1	-26%&-24%&-32%
CN(C)c1ccc2nc3ccc(=[N+](C)C)cc-3sc2c1	-28%
COc1ccc(C(=O)c2ccccc2)c(O)c1	40µM*!
CN(C)C(=O)CNC(=O)Cc1ccccc1	0%
N=c1nc(N2CCCCC2)cc(N)n1O	-12%
c1ccc(-n2cnnn2)cc1	29%
NC(=O)C[C@@H](N)C(=O)O	36%[activator]
CC[C@H](C)[C@H](N)C(=O)O	22%
C=Cc1ccccc1	-22%
